Compound activity as filed in PubChem BioAssay.
Mtb hypoxia inh – inhibitors of hypoxia-regulated fluorescent reporter in Mycobacterium tuberculosis | M. tuberculosis hypoxia-regulated fluorescent reporter, fluorescence | fluorescence inhibition, % (concentration not given with the values) | actives 0.1% (n = 300,000) | AID 1159583;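 active = 35 to 45% if threefold the growth effect, above 45% if 1.5-fold the growth effect; inactive = the rest, general growth blockers included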;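 also: wells of about 50 µL received 100 nL stock; 0% = vehicle wells and 100% = reference inhibitor wells; whole bacteria with a GFP reporter of the hypoxia response; strong numbers were not always called active; many hits fall short of the cut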
BJeLR lethal – BJeLR cell viability loss | BJeLR (HRASV12) viability, CellTiter-Glo ATP luminescence, 48 h; reference of the scale not given here | inhibition, % (test concentration not listed) | actives 0.17% (n = 300,000);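 active = replicate mean above 50%; inconclusive = above 50% but judged a plate artefact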;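 also: 50 nL library stock added to about 25 µL; numbers are from one replicate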
PrP UTR inh – suppresses PrP 5' UTR mRNA reporter expression; cell-based PrP 5' UTR mRNA reporter, plate reader; actives 0.35% (n = 340,000); AID 488862; inhibition, % (test concentration not listed);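 active = every replicate at 50% or more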;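 also: 0 = median of the neutral control wells; tested in H4 reporter cells; numbers are from one replicate; inactives centre near -14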
Autofluor counter – compound fluorescence in toxin protease inhibitor counterscreen. fluorescence intensity (test concentration not listed). AID 624483. actives 3.1% (n = 360,000). compound autofluorescence counterscreen, microsphere flow cytometry; active compounds read high;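 active = at least 3 SD above the mean of all compounds, about 16000 in these data; inconclusive = too few beads counted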;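 also: 100 nL of 1 mM stock went into each well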
ugtP null kill – compounds lethal to S. aureus RN4220 ugtP deletion mutant; OD600 growth, 16 h; some inactives read as strong as hits; growth inhibition, % (test concentration not listed); actives 0.54% (n = 330,000); AID 1259309;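 active = z-score under -3 and OD600 up to 0.15 on both plates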;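 also: plate controls were untreated wells for no effect and antibiotic for full effect; wells of about 80 µL received 100 nL stock; the first replicate is given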
Sa RN4220 lethal – S. aureus RN4220 growth inhibition | OD600, 16 h | inhibition, % (no concentration beside the values) | actives 0.33% (n = 330,000) | AID 1259311;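 active = z-score of -3 or lower and OD600 up to 0.18 on both plates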;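 also: plate controls were untreated cells for no effect and reference antibiotic for full effect; stock transfer was 100 nL into about 80 µL; one replicate is shown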
Mtb hypoxia inh growth – recorded beside Mtb hypoxia inh, whose call it bears; growth inhibition, %; measured here: M. tuberculosis growth (absorbance);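 0% = vehicle and 100% = reference antibiotic; read after six days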
Numbers without * were called inactive; ? = inconclusive; . = no result given; & = joins results of further samples.

Results follow in this order: Mtb hypoxia inh	Mtb hypoxia inh growth	BJeLR lethal	PrP UTR inh	Autofluor counter	ugtP null kill	Sa RN4220 lethal
> COC(=O)c1ccc(N2CCN(C)CC2)c(NC(=O)COc2ccc(C)cc2)c1
 : 11.6	2.0	5.1	-17.5	5748	12.0	0.1
> Cc1ccccc1NC(=O)NCCCN1CCN(c2ccccc2)CC1
 : -3.9	1.3	-8.8	-13.5	2691	4.4	4.2
> COc1ccc(C2c3c(ncn(Cc4ccco4)c3=N)Oc3ccc4ccccc4c32)cc1 (stereo unspecified)
 : -3.9	4.9	1.5	-25.0	2748	-17.6	13.0
> COCc1c(C(=O)NN=Cc2ccncc2)nnn1-c1nonc1N
 : 3.8	7.5	.	.	.	8.3	4.6
> COc1ccc(CNC(=O)C/C(C)=N/NC(=O)C23CC4CC(CC(C4)C2)C3)cc1
 : .	.	5.2	-35.9	4509	.	.
> CC(C)Cc1ccc(CN2CCCC(NC(=O)c3cnc4ccccn4c3=O)C2)cc1 (stereo unspecified)
 : -2.5	2.4	12.1	-18.2	?	2.8	1.3
> COC(=O)c1c(NC(=O)c2ccc(C)c(S(=O)(=O)Nc3ccccc3C)c2)sc2c1CCCC2
 : 1.4	-4.8	-15.4	-3.4	10284	-0.4	-4.1
> CCN(CC)CCNC(=O)c1ccc(NC(=O)Cc2ccsc2)cc1
 : 3.0	10.8	0.5	3.1	6089	-4.6	-1.7
> Cc1noc(C)c1C(=O)N(CC(C)C)c1nc2ccccc2s1
 : 8.2	1.0	-21.0	-15.0	4617	1.4	7.4
> CC(C)(C)c1ccc(S(=O)(=O)N2CCN(CC(O)CN3CCOCC3)CC2)cc1 (stereo unspecified)
 : 6.2	10.3	.	-10.5	3174	7.7	3.8
> COc1cc(C)c(S(=O)(=O)N2CCCC2)cc1C(C)C
 : 2.5	4.4	2.4	-17.0	3419	1.4	6.6
> O=[N+]([O-])c1cc(F)c(N2CCCCC2)cc1Br
 : 0.2	-4.5	3.5	-15.5	4772	-4.9	8.0
> O=c1[nH]nc(SCCS(=O)(=O)c2ccc(F)cc2)n1-c1ccc2c(c1)OCCO2
 : 2.9	3.1	5.2	-60.4	3682	9.4	5.0
> CCCCC1=CC2=C(c3ccco3)C(=O)C(C)(OC(=O)c3ccc(OC)cc3)C(=O)C2=CN1CCCN(CC)CC (stereo unspecified)
 : 4.1	-2.9	1.1	-35.7	3186	0.8	5.3
> Cn1c(=O)oc2cc(S(=O)(=O)N3CCc4ccccc4C3)ccc21
 : .	.	.	-20.8	5875	-0.2	1.9

Only BJeLR lethal and Mtb hypoxia inh growth (4 entries from above):
structure | BJeLR lethal | Mtb hypoxia inh growth
COc1cc(C)c(S(=O)(=O)N2CCCC2)cc1C(C)C | 2.4 | 4.4
O=[N+]([O-])c1cc(F)c(N2CCCCC2)cc1Br | 3.5 | -4.5
O=c1[nH]nc(SCCS(=O)(=O)c2ccc(F)cc2)n1-c1ccc2c(c1)OCCO2 | 5.2 | 3.1
CCCCC1=CC2=C(c3ccco3)C(=O)C(C)(OC(=O)c3ccc(OC)cc3)C(=O)C2=CN1CCCN(CC)CC (stereo unspecified) | 1.1 | -2.9

(further entries)
Results follow in this order: Mtb hypoxia inh	Mtb hypoxia inh growth	BJeLR lethal	PrP UTR inh	Autofluor counter	ugtP null kill	Sa RN4220 lethal
> Cc1ccc(COC(=O)c2nn(C)c(=O)c3ccccc23)cc1
 : 3.3	8.1	29.2	-11.9	4358	10.2	4.3
> C=CCC(CC)C(=O)NC(=O)N1CCCc2ccccc21 (stereo unspecified)
 : 8.0	-4.3	5.9	-34.4	4807	7.7	0.7
> O=C(N/N=C/c1cccs1)C1CC(=O)N(c2ccccc2)C1 (stereo unspecified)
 : .	.	-0.5	-28.7	20162*	.	.
> Cc1ccc(N2C(=O)CCC(C(=O)O)C2c2cccs2)cc1 (stereo unspecified)
 : 7.9	6.1	-2.7	0.2	3447	3.2	0.5
> O=C(C1=CC(c2csc3ccccc23)CC(OCc2ccc(CO)cc2)O1)N1CCN(Cc2ccccc2)CC1 (stereo unspecified)
 : 2.0&-3.3	4.9&-12.6	.	.	.	9.8&8.2	7.5&8.7
> O=C(CN1CCOCC1)Nc1ccccc1Sc1ccccc1
 : 0.4	-0.2	-1.3	-80.0	2179	-9.0	6.8
> O=C(Nc1ccc(Cl)cc1)N(Cc1cccs1)Cc1cccs1
 : .	.	5.3	-12.8	4770	-0.3	-11.9
> CCc1ccccc1N(CC(=O)NC1CCCCC1)C(=O)CCCC(=O)Nc1ccccn1
 : 9.4	1.5	8.9	-23.9	3762	-1.2	1.0
> COc1cc(/C=C(\C#N)C(=O)Nc2cccnc2)ccc1OC(C)C
 : 12.1	3.5	.	-21.3	2129	13.3	2.6
> Cc1ccc(C(=O)NC(=S)/C=C2\N(C)c3ccccc3C2(C)C)cc1
 : 12.0	7.8	5.3	-1.9	3476	-7.6	24.4
> COc1ccccc1N1C(=O)NC(=O)/C(=C/c2ccc3c(c2)Cc2ccccc2-3)C1=O
 : .	.	-5.8	-8.0	2014	.	.
> CCOc1ccc(C(=O)Nc2nncs2)cc1OCC
 : -10.7	-3.0	-5.5	-15.3	9238	3.0	0.5
> COC(=O)Nc1ccc2c(c1)N(C(=O)CCN1CCN3CCCC3C1)c1ccccc1CC2 (stereo unspecified)
 : -3.2&12.6	4.3&2.1	0.1&-3.7	-41.7&-6.0	4356&2889	-0.8&0.0	5.7&0.0
> COc1ccc(Cc2nnc(NCCO)[nH]c2=O)cc1
 : 1.9	3.4	-1.0	12.0	4560	1.8	-0.4
> Clc1ccc(-c2csc(NN=Cc3cccnc3)n2)c(Cl)c1
 : -3.3	-5.8	.	.	.	-0.2	-13.0
> CC1CN(C(C)CO)C(=O)c2cccc(NC(=O)c3ccncc3)c2OC1CN(C)C (stereo unspecified)
 : 11.5	7.7	.	.	.	4.9	5.8
> CC1CCCCN1CCNC(=O)C1CCN(S(=O)(=O)c2cccc3cccnc23)CC1 (stereo unspecified)
 : .	.	0.8	-0.7	17441*	4.6	0.3
> COC(=O)c1ccc(Oc2ccc(S(=O)(=O)N3CCCCC3)cc2N)cc1
 : -0.2	-1.1	6.1	-21.5	4136	4.1	-7.5
> COc1cccc(CNC(=O)C2CSC3(C)CCC(=O)N23)c1 (stereo unspecified)
 : 3.5	3.4	1.7	-21.4	17016*	0.2	-0.7
> CCc1cc2c(=O)c(-c3nc4ccccc4n3C)c(C)oc2c(CN(CC)CC)c1O
 : .	.	-3.6	2.8	?	-3.2	3.2
> Cc1nn(-c2ccccc2)c2c1C(O)CC(C)(C)C2 (stereo unspecified)
 : 1.4	-4.9	-2.4	4.3	3061	-4.8	0.3
> CC(=O)c1cccc(S(=O)(=O)N2CCCC(c3nc4c(nnn4Cc4cccc(Cl)c4)c(=O)[nH]3)C2)c1 (stereo unspecified)
 : 3.7	-9.8	-2.3	-6.0	2978	-4.0	2.6
> Cn1c(CNc2ccc(F)cc2)nnc1SCC(=O)NNC(=O)Cc1ccccc1
 : -4.2	-1.7	0.8	-8.2	2536	2.7	3.6
> CC(C(=O)NC1CCCCCC1)c1ccc([N+](=O)[O-])cc1 (stereo unspecified)
 : 12.4	5.1	-4.5	-11.8	.	5.8	1.1
> O=C(NCc1ccccn1)C(=O)NN=C1CCCCCCC1
 : 12.5	8.1	0.9	-24.2	3368	8.6	4.1
> CN1C(=O)[C@@H]2[C@@H]3C[C@@H]([C@H]4ON=C(c5ccc(Cl)cc5Cl)[C@@H]34)[C@@H]2C1=O
 : 20.4	14.8	0.2	-25.8	2050	3.7	3.3
> Cc1ccc2c(c1)N(Cc1ccc([N+](=O)[O-])cc1)C=NS2(=O)=O
 : 1.4	-1.1	2.1	.	3741	-1.4	0.0
> COc1cc2[nH]c(=O)n(CCC(=O)NCCCN3CCN(c4ccccc4F)CC3)c(=O)c2cc1OC
 : 9.5	-1.7	5.5	-26.5	4364	0.0	4.3
> Cc1ccc(C(=O)N/N=C/c2ccc(-c3ccccc3[N+](=O)[O-])o2)cn1
 : .	.	1.7	-23.7	2126	.	.
> CCC(=O)Nc1nc2ccccc2n1Cc1ccc(C)cc1
 : .	.	-6.8	2.6	2835	-1.1	4.8
> CCC(C(=O)NC(C)(C)C)N(Cc1ccc(F)cc1)C(=O)c1snc(C(N)=O)c1N (stereo unspecified)
 : 9.6	2.3	-6.9	-0.2	3108	5.2	6.3
> CC1=C(C)CC2C(=O)N(Cc3ccccc3)C(=O)C2C1 (stereo unspecified)
 : 3.5	-0.6	-1.8	-31.0	7508	5.5	5.4
> COc1ccc(NC(=O)COC(=O)CCc2nc3ccccc3c(=O)[nH]2)cc1Cl
 : 5.1	-10.2	.	-8.2	6776	4.1	2.3
> COC(=O)C(O)(c1ccc(N(C)C)cc1)C(F)(F)F (stereo unspecified)
 : 7.9	5.0	-0.8	66.0*	3149	2.0	3.8
> O=C(COc1ccc(Cl)cc1Cl)NN=C1CCCCC1
 : 14.2	7.4	-3.4	-11.5	2097	1.0	5.5
> O=C(/C=C/c1ccccc1)NC(NC(=S)Nc1ccc(C(=O)O)cc1)C(Cl)(Cl)Cl (stereo unspecified)
 : .	.	-1.8	-29.3	2137	.	.
> O=C1Nc2ccccc2C1=NN1CCOCC1
 : 6.1	-1.5	.	.	.	2.6	4.3
> Cc1ccc(S(=O)(=O)N2CCN(C(C)C(=O)NCC(C)c3ccccc3)CC2)cc1 (stereo unspecified)
 : 4.1	8.6	.	-2.1	2981	5.1	6.3
> O=C(c1cccc(F)c1)N1C2C=CC(C2)C1(C(F)(F)F)C(F)(F)F (stereo unspecified)
 : 5.9	1.6	9.7	-11.8	3014	3.8	5.6
> O=C(NNc1nc2cc3c(cc2s1)OCCO3)c1ccccc1
 : .	.	-7.0	-44.5	7041	.	.
> O=C(Nc1cccc(Cl)c1Cl)c1ccccc1OCC(=O)N1CCOCC1
 : -1.2	-4.4	-5.2	0.8	6211	2.9	6.6
> Cc1ccc2c(c1)[C@@H]1CN(C)CC[C@@H]1N2S(=O)(=O)c1ccc([N+](=O)[O-])cc1
 : -3.5	10.3	-0.1	-11.3	5445	-4.2	16.1
> Cc1ccc(NC(=O)CCc2c(C)[nH]c(=O)c(C#N)c2C)cc1
 : -5.2	2.6	1.9	-29.3	3810	9.8	0.2
> CCOc1cc(C(N)=O)cc(OCC)c1OCC
 : 14.7	7.6	-2.9	-6.1	3982	0.0	5.8
> COc1ccc2ccccc2c1CN(C)Cc1ccccc1
 : -12.9	5.5	-1.8	-3.8	3116	-2.6	2.6
> CCc1ccccc1NC(=O)c1ccc(S(=O)(=O)NCC2CCCO2)cc1 (stereo unspecified)
 : 3.2	3.1	-7.3	-22.0	4798	4.3	-3.0
> CCOC(=O)C1CCN(CC(O)COc2ccc(C(C)(C)CC)cc2)CC1 (stereo unspecified)
 : 17.4	10.6	0.8	-28.6	8679	0.3	3.1
> Cc1ccc2c(c1)c(C)c(C)n2CC(O)Cn1nc(C)c(Br)c1C (stereo unspecified)
 : .	.	5.7	13.0	5725	-16.8	-0.1
> CSCCC(NC(=O)c1ccccc1)C(=O)N1CCN(Cc2ccc(Cl)cc2)CC1 (stereo unspecified)
 : 6.0	2.4	.	-27.0	4800	4.3	2.2
